MARV entry inh = inhibitors of Marburg virus binding or cell entry; Marburg virus pseudotyped entry inhibition, cell reporter; control for the full effect not named in the record; about a third of the inactives were read at about 46 µM; Potency, µM (highest dose often 37.8 µM), inactives show at the highest dose activity change, negative = inhibition, actives largely listed as inhibitors; 1.8% of 300,000 active; active = well fitted inhibition curve with a large enough effect; inconclusive = small, poorly fitted or top-dose-only effect, or effect the other way; inactive = flat fitted curve, though single readings scatter; tested in HEK293 cells; about a fifth of its hits are not listed in these tables; also: % is scaled to controls: 0 for no effect and ±100 for the full control effect; luciferase read-out
Cruzain noTriton = blocks cruzain activity in detergent-free assay; P25779; purified cruzain, Z-FR-AMC fluorescence, no detergent; Potency, µM, inactives show max response, negative = inhibition, usual class: inhibitors; 2.3% of 200,000 active;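 also: plate controls were enzyme without inhibitor for no effect and buffer without enzyme for full effect; nearly all actives have a fitted effect of over 40% in size; top concentration of the series not given in the record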
Target sequence (P25779 123-467 limits assumed): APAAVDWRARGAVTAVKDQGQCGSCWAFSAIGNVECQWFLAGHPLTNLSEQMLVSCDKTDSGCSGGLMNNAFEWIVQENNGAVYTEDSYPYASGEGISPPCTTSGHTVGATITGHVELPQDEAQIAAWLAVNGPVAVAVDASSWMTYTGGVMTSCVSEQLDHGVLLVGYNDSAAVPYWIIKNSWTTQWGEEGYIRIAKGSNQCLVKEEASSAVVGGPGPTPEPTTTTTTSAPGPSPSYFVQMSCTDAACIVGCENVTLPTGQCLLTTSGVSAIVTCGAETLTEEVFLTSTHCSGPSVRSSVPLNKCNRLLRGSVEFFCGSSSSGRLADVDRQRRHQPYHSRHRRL
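Detergent-free condition (0.00005% Triton X-100) in acetate buffer pH 5.5 with DTT. 1.5 nM enzyme and compound were pre-mixed 15 min, then 2 uM Z-FR-AMC substrate added; reaction progress from fluorescence change between first and third reads (60 s).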
SARS PLP yeast = SARS-CoV PLP inhibition in yeast. AID 485353. S. cerevisiae expressing SARS-CoV PLpro, growth rescue; control for the full effect not named in the record. Potency, µM (series often up to 32.9 µM), for inactives: at the highest dose activity, positive = growth rescue. 0.19% of 330,000 active; active means well fitted rising curve with a large enough effect; inconclusive means small, poorly fitted or top-dose-only effect; inactive means no such curve, though single readings can be large or run the other way; also: 0% is about no effect; nearly all actives have a fitted effect of over 55% in size; growth read by luminescence after 48 h
RE007 growth inh = less growth of the S. pombe RE007 Vpr strain | S. pombe RE007 Vpr strain, BacTiter-Glo ATP luminescence, 24 h; control for the full effect not named in the record | AID 651644 | Potency, µM (top dose mostly 92.2 µM), inactives show top-dose activity change, negative = less growth | 0.21% of 360,000 active; active = well fitted falling curve with a large enough effect; inconclusive = small, poorly fitted or top-dose-only effect; inactive = no such curve, though single readings can be large or run the other way;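 also: % is scaled to controls: 0 for no effect and ±100 for the full control effect; nearly all actives have a fitted effect of over 50% in size; the assay follows cell death caused by Vpr and the record does not say whether a fall means rescue or toxicity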
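Fission yeast RE007 carrying one integrated HIV-1 vpr copy, seeded at OD 0.01 in PMG+AL medium with 23 nL pinned compound. Grown 24 h at 30 degrees; viability read by BacTiter-Glo luminescence after 5 min.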
Lassa entry inh = blocks Lassa virus binding to or entry into cells | Lassa virus pseudotype entry inhibition, cell reporter; control for the full effect not named in the record | Potency, µM (top dose mostly 37.9 µM), for the others: at the top dose activity change, negative = inhibition, actives largely listed as inhibitors | 1.2% of 300,000 active | AID 540256; active means well fitted inhibition curve with a large enough effect; inconclusive means small, poorly fitted or top-dose-only effect, or effect the other way; inactive means flat fitted curve, though single readings scatter; tested in HEK293 cells; also: % is scaled to controls: 0 for no effect and ±100 for the full control effect; nearly all actives have a fitted effect of over 50% in size; luciferase read-out
Cruzain inh Det = cruzain (T. cruzi) inhibition with detergent. purified cruzain, Z-FR-AMC fluorescence, 0.01% Triton. Potency, µM, inactives show max response, negative = inhibition, most hits filed as inhibitors. P25779. 0.43% of 200,000 active;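 also: plate controls were neutral wells for no effect and buffer without enzyme for full effect; nearly all actives have a fitted effect of over 40% in size; top concentration of the series not given in the record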
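In this qHTS format, compounds are incubated with 1.5 nM cruzain for 15 min at room temperature before 2 uM Z-FR-AMC is added. Release of AMC is followed at 360/450 nm, and progress is taken as the 60 s fluorescence difference.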
StopGo reporter = lowers the luciferase signal of an FMDV 2A StopGo reporter; human cells with a luciferase reporter of 2A StopGo recoding; control for the full effect not named in the record; Potency, µM (titrated, usually from 57.9 µM), without a hit: top-dose signal change, negative = less light; 1.2% of 410,000 active; AID 1159524; active = well fitted falling curve with a large enough effect; inconclusive = small, poorly fitted or top-dose-only effect; inactive = no such curve, though single readings can be large or run the other way; tested in HEK293T cells; also: % is scaled to controls: 0 for no effect and ±100 for the full control effect; nearly all actives have a fitted effect of over 45% in size; luciferase light after 4 h
NS1 function inh = influenza NS1 inhibition; S. cerevisiae slowed by influenza A NS1, growth recovery by OD600; Potency, µM (series often up to 46.1 µM), inactives show top-dose activity, positive = more growth; 0.4% of 270,000 active; active means well fitted rising curve with a large enough effect; inconclusive means small, poorly fitted or top-dose-only effect; inactive means no such curve, though single readings can be large or run the other way; also: nearly all actives have a fitted effect of over 50% in size
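In this qHTS, NS1 from influenza A is expressed in budding yeast, where it slows growth. Cells are switched from glucose to 2% galactose medium (pH 6.0, -URA), treated with compound, and growth recovery is read at OD600.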
* hit, by the source's call; ? = inconclusive; nt = not tested or not shown; [ ] = dose if it differs, or a comment. Unless noted, calls follow the shape of the dose curve; as a rule, active = well fitted curve in the direction sought with a large enough effect; inconclusive = small, poorly fitted or top-dose-only effect, or another doubt; inactive = no such curve, though single readings can be large; an effect the other way counts as inactive or inconclusive. Potency is read from the fitted curve at half-maximal effect.

mol | MARV entry inh | Cruzain noTriton | SARS PLP yeast | RE007 growth inh | Lassa entry inh | Cruzain inh Det | StopGo reporter | NS1 function inh
O=C(CCCCCn1c(=S)[nH]c2cc3c(cc2c1=O)OCO3)N1CCN(C2CCCCC2)CC1 | ? | 4.4% | -1.9% | 2.0% | 0.1% | 3.1% | -26.1% | -9.0%
COc1ccc(NC(=O)COc2cc(O)c3c(c2)OC(C)(C)CC3=O)cc1 | nt | nt | -14.2% | -5.0% | nt | nt | 0.0% | -34.6%
Cc1cc(Oc2ccc(=O)n(C)n2)nc(SCCOc2ccccc2)n1 | ? | nt | 6.8% | -9.3% | 2.1% | nt | -25.3% | -0.3%
CCCNS(=O)(=O)c1ccc(CCC(=O)NCc2ccc3c(c2)OCO3)cc1 | -10.2% | 3.6% | 2.1% | -0.2% | -3.1% | 5.5% | -0.5% | -3.6%
COc1ccc(C(=O)OC(C(=O)c2ccc(C)cc2)c2ccccc2)cc1 (stereo not drawn) | 1.6% | -5.7% | 1.6% | 22.9% | -20.8% | -1.6% | -2.2% | 29.9%
CN(CCCS(=O)(=O)[O-])c1ccc(/C=C/c2ccc3ccccc3[n+]2C)cc1 | nt | nt | -0.7% | -24.1% | nt | nt | -13.3% | -1.0%
CC(NC(=O)c1ccc2c(c1)S(=O)(=O)N=C1CCCCCN12)c1ccc(S(N)(=O)=O)cc1 (stereo not drawn) | 9.0% | nt | 5.9% | -7.6% | 16.7% | nt | 0.2% | 0.6%
Cc1cc(C)n2c(SCC(=O)NC3CCCCC3)nnc2n1 | -0.6% | nt | 0.9% | -7.1% | -20.0% | nt | 3.2% | 2.4%
Cc1nc2ccccc2c(=O)n1NC(=O)c1ccc(Cl)c(Cl)c1 | nt | nt | -4.6% | 3.5% | nt | nt | ? | 0.8%
CCOc1ccccc1NC(=O)Cn1cnc2onc(-c3ccc(F)cc3)c2c1=O | nt | -1.0% | nt | nt | -0.6%[46.1 µM] | -2.4% | 0.0% | nt
CC(C)CNC(=S)N(CCN(C)C)Cc1cc2cc3c(cc2[nH]c1=O)OCCO3 | nt | nt | 7.4% | -8.7% | nt | nt | -25.8% | -3.5%
O=C(Nc1ccccc1Cl)c1cc(S(=O)(=O)N2CCCCC2)ccc1N1CCOCC1 | 5.6% | 2.3% | -4.2% | 2.9% | ? | -1.9% | -14.3% | 4.1%
COc1cc(OC)cc(C(=O)NC(C)CNc2ccc(Cl)cc2[N+](=O)[O-])c1 (stereo not drawn) | nt | nt | -2.0% | 2.3% | nt | nt | -13.0% | -1.5%
Cc1ccccc1Cn1c(C(C)O)nc2ccccc21 (stereo not drawn) | -6.2% | 0.8% | -1.1% | 13.3% | ? | 2.8% | -11.1% | -2.8%
Cc1ccc(CC2CC(=O)N(c3ccc(Cl)cn3)C2=O)cc1 (stereo not drawn) | 1.8% | 1.6% | -0.8% | -23.6% | -0.3% | 7.6% | 4.7% | -5.0%

As a working copy, some entries already given:
mol | MARV entry inh | Cruzain noTriton | SARS PLP yeast | RE007 growth inh | Lassa entry inh | Cruzain inh Det | StopGo reporter | NS1 function inh
COc1cc(OC)cc(C(=O)NC(C)CNc2ccc(Cl)cc2[N+](=O)[O-])c1 (stereo not drawn) | nt | nt | -2.0% | 2.3% | nt | nt | -13.0% | -1.5%
Cc1ccccc1Cn1c(C(C)O)nc2ccccc21 (stereo not drawn) | -6.2% | 0.8% | -1.1% | 13.3% | ? | 2.8% | -11.1% | -2.8%
Cc1ccc(CC2CC(=O)N(c3ccc(Cl)cn3)C2=O)cc1 (stereo not drawn) | 1.8% | 1.6% | -0.8% | -23.6% | -0.3% | 7.6% | 4.7% | -5.0%

Remaining list, next part:
mol | MARV entry inh | Cruzain noTriton | SARS PLP yeast | RE007 growth inh | Lassa entry inh | Cruzain inh Det | StopGo reporter | NS1 function inh
O=S(=O)(NC(=NCc1ccccc1)c1ccccc1)c1ccc(Br)cc1 | 3.0% | nt | 1.5% | 12.3% | 1.7% | nt | 22.5% | 3.3%
CCc1ccc(CNC(=O)c2ccc(NC(=O)N3CCCCc4ccccc43)cc2)cc1 | nt | 4.3% | nt | nt | -9.0%[46.1 µM] | -0.6% | -12.2% | nt
COc1ccc(N(CC(=O)N2CCN(c3ccccc3)CC2)S(=O)(=O)c2c(C)noc2C)cc1 | 1.6% | ? | -2.6% | -5.3% | nt | -1.1% | -9.9% | -19.7%
CCOc1ccc(N=Nc2cc(C(C)C)ccc2O)cc1 | 16.5% | -10.4% | 3.8% | 1.3% | -10.4% | -8.1% | 2.5% | 5.2%
O=C(COc1ccc2c3c(c(=O)oc2c1)CCC3)N1CCCC1 | ? | nt | -0.7% | 0.0% | nt | nt | 23.1% | 14.3%
CSCCC(=O)N(C)CC1CCCN(CCc2cccc(C(F)(F)F)c2)C1 (stereo not drawn) | nt | nt | -6.4% | 0.2% | nt | nt | -3.3% | -4.4%
CN(C)CCCNC(=O)c1ccc2[nH]c3ccccc3c2c1 | -10.3% | -9.8% | -0.4% | -5.5% | 26.0% | -3.4% | -11.1% | 4.6%
O=C(c1ccccc1)C1Oc2ccccc2C2CC(c3cccs3)=NN12 (stereo not drawn) | -15.6%[46.1 µM] | nt | -0.7% | -11.8% | nt | nt | 92.3%[activator] | 6.2%
COc1ccc(/C=C2\Oc3cc(OC(=O)N4CCOCC4)ccc3C2=O)c(OC)c1 | ? | nt | -1.3% | -7.8% | -1.9% | nt | ? | 2.8%
Cc1nn(C(C)C(=O)Nc2ccccc2C(F)(F)F)c(=O)c2c1sc1ccccc12 (stereo not drawn) | ? | 13.6% | nt | nt | 26.9%[46.1 µM] | -4.2% | -10.1% | nt
Cc1cc(C)c(S(=O)(=O)N2CCOC2CNC(=O)C(=O)NCc2ccncc2)c(C)c1 (stereo not drawn) | 3.3% | nt | 1.2% | -16.3% | 0.7% | nt | -26.1% | 4.9%
CC(C)CCNC(=O)Cn1c(=O)oc2cc(S(=O)(=O)N3CC(C)CC(C)C3)ccc21 (stereo not drawn) | 4.1% | -24.7% | 9.3% | 0.0% | nt | -1.4% | 0.0% | 12.1%
COc1ccccc1NC(=O)CN1CCN(CC(=O)Nc2ccc(F)cc2)CC1 | -19.0% | -4.6% | 2.5% | 10.5% | 2.3% | 2.7% | -11.9% | -1.2%
Cc1noc(C)c1CCC(=O)Nc1c(C(C)C)cccc1C(C)C | 4.4% | nt | -5.6% | 16.4% | 4.9% | nt | -20.7% | nt
COc1cccc(C(=O)N2CCN(Cc3ccc4c(c3)OCO4)CC2)c1OC | 23.0%[46.1 µM] | -8.7% | 27.5% | 0.8% | -0.5% | -2.5% | -9.5% | -1.3%
COC(=O)CCC(=O)COc1ccc(OC)cc1C#N | 18.3%[46.1 µM] | -4.1% | 2.8% | -0.6% | ? | 3.7% | 22.9% | -6.3%
C=CCN(C(=O)c1ccc(Cl)cc1)c1ccccc1C(=O)NCC(=O)O | -4.3%[46.1 µM] | nt | 0.1% | 5.0% | 9.6%[46.1 µM] | nt | -7.0% | 3.1%
CCCCN(C)S(=O)(=O)c1ccc(C(=O)Nc2nnc(-c3cccs3)o2)cc1 | nt | -13.8% | -6.2% | nt | nt | -5.9% | nt | -20.9%
Cc1nc([N+](=O)[O-])c(SCC(N)=O)n1Cc1ccccc1 | nt | nt | -0.3% | -2.9% | nt | nt | -1.9% | 2.9%
O=C(NCCCN1CCCC1=O)c1ccc2c(=O)n(Cc3ccco3)c(=S)[nH]c2c1 | ? | -12.8% | 14.5% | 3.8% | -27.0% | -11.8% | ? | -1.2%
CC(C)(C)C1CCc2c(sc3nc(SCC(N)=O)nc(N)c23)C1 (stereo not drawn) | ? | ? | -12.8% | 10.9% | ? | -18.9% | -15.6% | 21.2%
Cc1ccc(NC(=O)CNc2cccc(S(=O)(=O)N3CCCC3)c2)cc1F | ? | nt | -2.3% | 4.9% | -10.6% | nt | -5.4% | nt
CCOc1ccc(-n2c(-c3ccco3)nc3c(cnn3-c3ccc(C)cc3)c2=O)cc1 | ? | nt | -0.6% | -20.8% | -16.4%[46.1 µM] | nt | -23.7% | -0.7%
Nc1ccc(CCS(N)(=O)=O)cc1 | 13.8% | 0.5% | -2.0% | 18.7% | 1.9% | 1.5% | -18.3% | 3.6%
CCCCn1c(N)c(N(CC)C(=O)c2ccccc2F)c(=O)[nH]c1=O | -20.5%[46.1 µM] | nt | -1.3% | 5.0% | -1.0% | nt | 15.0% | 12.2%
CCCNC(=O)Cn1c(=O)c2cccn2c2cccnc21 | nt | -16.9% | nt | nt | 6.5%[46.1 µM] | -3.6% | -1.2% | nt
CC(OC(=O)CN1C(=O)C2CCCCC2C1=O)C(=O)Nc1ncc(Cl)cc1Cl (stereo not drawn) | 4.8% | 2.2% | -2.6% | -4.9% | -25.9%[14.3 µM] | 1.4% | -9.0% | -2.5%
CCOc1ccc(NC(=O)CCC(=O)O)cc1 | 0.5% | 5.4% | -10.0% | 11.3% | 3.2% | 2.2% | -1.8% | 2.4%
CCOC(=O)N1CCN(c2ncnc3scc(-c4ccc(Cl)cc4)c23)CC1 | nt | nt | -6.1% | -1.6% | nt | nt | ? | -13.4%
O=C(N1CCOCC1)N1c2ccccc2Sc2ccccc21 | ? | -1.6% | -2.3% | 4.5% | ? | -1.5% | nt | -26.1%
CCOc1ccc(NC(=O)CSc2nccn2-c2cccc(C)c2C)cc1 | nt | -1.7% | nt | nt | 7.0%[46.1 µM] | -3.8% | -1.2% | nt
Cc1cc2nc(-c3ccc(Br)cc3)cc(C(F)(F)F)n2n1 | -26.5%[46.1 µM] | -12.1% | nt | nt | 6.7%[46.1 µM] | -2.3% | -7.2% | nt
CCS(=O)(=O)N1CCN(c2ncnc3sc(C)c(C)c23)CC1 | ? | nt | 0.6% | 5.7% | 6.6%[46.1 µM] | nt | -7.6% | -0.4%

From PubChem BioAssay
